Env fusion inh – inhibitors of HIV Env-mediated cell fusion; HeLa-JRFL Env/CEM21 cell fusion, luciferase; inhibition, % at 12.3 µM; 360,000 tested, 1.1% active; AID 651610;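 active means mean replicate inhibition score of at least 50 and every replicate individually at or above 50; inconclusive means only one of the two criteria met; inactive means mean below 50 and not all replicates reaching 50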;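 further: 0% = plate neutral controls and 100% = maraviroc near 300 nM; one replicate is shown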
MT1-MMP act inh – blocks activation of human MT1-MMP | P50281 | HT1080 RFP-PRO-GFP cells, GFP/RFP ratio fluorescence, overnight; percent of plate control window, DMSO zero | GFP/RFP ratio change, % at 20 µM | 360,000 tested, 0.061% active | AID 651647;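 active means GFP/RFP ratio change of at least 30% with cell ATP level not reduced by more than half and red fluorescence within 50% of control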; further: strong numbers were not always called active
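Assay system: HT1080 RFP-PRO-GFP cells | Dosing: 20 µM single dose, 1% DMSO | Incubation: Cells overnight before dosing, compound overnight, 37 °C, 5% CO2 | Evaluation: GFP/RFP fluorescence ratio | Control set: DMSO-only wells and HT1080 RFP-L50D-GFP cell wells as references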
UUG fidelity – alters start codon recognition fidelity in yeast; AID 602363; activity score, % at 18.7 µM; S. cerevisiae UUG-firefly luciferase reporter, luminescence/redox ratio; 350,000 tested, 0.13% active;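 active means replicate mean at a twofold rise or more, about +100% in these data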;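 further: firefly luciferase made from a UUG start codon reports start codon fidelity; reporter light over untreated wells divided by growth signal over untreated wells; some hits fall short of that in this replicate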
CSC inhib – cancer stem cell inhibition. cancer stem cell-like cells viability, luminescence. inhibition, % at 7.5 µM. 300,000 tested, 1.1% active. AID 2717;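 active means mean at 75% or more and at least half the replicates too; inconclusive means mean and replicates disagree; tested in HMLE shEcad cells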;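 further: 0% = median of negative and 100% = median of positive control wells; the first replicate is given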
Rce1 inhib – yeast Ras-converting enzyme inhibition; calls only; yeast membranes, quenched prenylated peptide cleavage fluorescence; 290,000 tested, 0.27% active; Q03530;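 active means fall in fluorescence gain of 50% or more versus controls, with final raw signal at or below 3038400; inconclusive means same 50% fall but final raw signal above 3038400; inactive means fall in fluorescence gain under 50%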;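 further: plate controls were neutral control wells for no effect and wells lacking membranes for full effect; tested at 10 µM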
eIF4H FP inh – inhibitors of RNA binding by human eIF4H. Q15056. eIF4H fluorescence polarization binding assay. inhibition, % at 35 µM. 290,000 tested, 0.94% active. AID 2012;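 active means 50% or more with normal probe brightness, or confirmed in later tests; inconclusive means above 50% with abnormal brightness, or retests that disagree; inactive means below 50% or failed in later tests; about a fifth of its hits are not listed in these tables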;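 further: calls also rest on retests at 20 µM and on dose response follow-up; 0% = protein and probe with vehicle and 100% = probe without protein; strong numbers were not always called active; many hits fall short of the cut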
PABP FP inh – PABP-poly(A) binding inhibition | P11940 | inhibition, % at 35 µM | PABP-poly(A) RNA binding, fluorescence polarization | AID 2014 | 290,000 tested, 1% active;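 active means 50% or more with normal probe brightness, or confirmed in later tests; inconclusive means above 50% with abnormal brightness, or retests that disagree; inactive means below 50% or failed in later tests; about a fifth of its hits are not listed in these tables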;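 further: calls also rest on retests at 20 µM and on dose response follow-up; controls were probe without protein and protein plus probe with vehicle; some compounds called inactive have numbers as strong as hits; many hits fall short of the cut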
Target sequence (P11940 whole entry, looked up): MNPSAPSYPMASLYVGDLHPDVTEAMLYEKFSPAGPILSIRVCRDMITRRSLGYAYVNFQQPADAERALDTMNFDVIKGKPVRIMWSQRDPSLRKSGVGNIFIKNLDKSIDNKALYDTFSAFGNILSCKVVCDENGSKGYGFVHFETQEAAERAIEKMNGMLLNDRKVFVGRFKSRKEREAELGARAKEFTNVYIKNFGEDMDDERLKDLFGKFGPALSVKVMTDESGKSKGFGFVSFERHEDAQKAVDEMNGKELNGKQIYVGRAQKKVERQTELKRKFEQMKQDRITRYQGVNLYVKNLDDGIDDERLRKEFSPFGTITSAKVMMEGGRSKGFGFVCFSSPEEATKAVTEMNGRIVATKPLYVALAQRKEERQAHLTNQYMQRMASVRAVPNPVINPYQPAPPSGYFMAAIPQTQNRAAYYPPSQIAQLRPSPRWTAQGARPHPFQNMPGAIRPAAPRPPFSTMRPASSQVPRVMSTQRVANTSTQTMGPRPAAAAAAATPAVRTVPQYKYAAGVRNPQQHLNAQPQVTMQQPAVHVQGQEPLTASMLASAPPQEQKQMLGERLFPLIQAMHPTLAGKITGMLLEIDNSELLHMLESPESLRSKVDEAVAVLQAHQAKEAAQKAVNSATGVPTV
eIF4H FP inh retest – further read-out of eIF4H FP inh, marked with its call; inhibition, %; compound at 20 µM; confirmation average;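 mean of two retest wells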
PABP FP inh retest – further read-out of PABP FP inh, marked with its call; inhibition, %; compound at 20 µM; confirmation repeats;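 mean of two retest wells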
MT1-MMP act inh RFP – second read-out of MT1-MMP act inh, no call of its own (marks repeat the call); RFP signal change, %; measured here: RFP expression control read;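 0 = vehicle wells; hits needed this value within 50% of zero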
* marks the source's active call; other numbers are inactive results; i = inactive; ? = inconclusive; nt = no result given; [ ] = dose if it differs, or a comment.

SMILES	Env fusion inh	MT1-MMP act inh	MT1-MMP act inh RFP	UUG fidelity	CSC inhib	Rce1 inhib	eIF4H FP inh	PABP FP inh	others
O=C(CC1C(=O)NCCN1Cc1ccccc1C(F)(F)F)NCCN1CCCCC1=O (stereo unspecified)	-3	1	4	-10	nt	i	7	21
N#CCCN(C(=O)COC(=O)c1cc(=O)[nH]c2ccccc12)c1ccccc1	8	-3	-1	-16	-12	nt	nt	nt
Cc1ccc(S(=O)(=O)N2C[C@@H]3[C@H]4CC[C@H](C4)[C@@H]3[C@@H](C)[C@H]2C#N)cc1	17	2	-7	10	nt	nt	nt	nt
COc1cccc(N2CCN(S(=O)(=O)c3ccc(-c4cnc(C5CC5)o4)cc3)CC2)c1	-21	2	-6	-13	-4	i	4	-5
CC(OC(=O)c1cc2sccc2n1C)C(=O)NCc1ccc2c(c1)OCO2 (stereo unspecified)	nt	1	-10	-20	4	i	1	-11
CCCn1c2ccccc2c2nnc(SCC(=O)Nc3cc(C)on3)nc21	nt	-1	1	1	-8	i	-7	0
COc1ccc(C(=O)C2CCN(C(=O)Nc3ccccc3C)CC2)cc1	5	3	3	2	-7	i	1	8
C#CCOCCOCCOCCNc1nc(N2CCOCC2)nc(N2CCN(C(=O)CCCCCCCCCCNC(=O)Cn3cc(CCCCCN)nn3)CC2)n1	1	-1	2	-1	-17	nt	nt	nt
O=C(Nc1ccccc1)c1cc(S(=O)(=O)N2CCSCC2)ccc1Cl	nt	0	-3	-10	-9	i	-10	3
N#C/C(=C/c1ccc(N2CCCCC2)o1)C(=O)Nc1ccc2ccccc2c1	-8	-118	0	nt	nt	i	?	1
CC1(C)CC(=O)c2sc(NC(=O)CN3C(=O)CCC3=O)nc2C1	-4	3	5	-5	1	i	-7	-9
C=CCn1c(C)cc(C2=NNC(=NC(C)(C)C)SC2)c1C	13	-7	-2	nt	33	i	28	-2
O=C(COC(=O)c1cc(Br)c(Br)s1)NCCC1=CCCCC1	-14	1	2	-12	-6	i	-10	3
Clc1ccc(N2CCN(/N=C/c3cccnc3)CC2)cc1	7	4	-3	-22	11	i	-9	-5
Cc1ccc(C2=CC(=O)C[C@H](c3ccc(F)cc3)C2)cc1	-7	4	0	-13	20	nt	nt	nt
CCCn1c(SCC(=O)N2CCCCC2)nnc1-c1ccccn1	9	nt	nt	nt	-5	i	6	-9
CC1(C)Cc2c(C#N)c(N3CCN(C(=O)c4ccco4)CC3)nc(Cc3ccccc3)c2CO1	-65	-41	-29	-10	nt	i	-9	8
Cc1sc2ncn(CC(=O)N3CCN(c4ccccn4)CC3)c(=O)c2c1S(=O)(=O)N1CCCCC1	-1	-1	-2	-18	-5	i	-6	-6
COc1ccc(NC(=O)C2(C)CCN2Cc2csc3ccccc23)cc1OC (stereo unspecified)	1	1	-5	20	nt	nt	nt	nt
O=C(CN1CCCC1c1cccs1)Nc1cc(S(=O)(=O)N2CCCC2)ccc1Cl (stereo unspecified)	6	1	-3	-9	0	nt	nt	nt
CC(=O)c1c(C)[nH]c(C(=O)NNC(=O)COc2cc(C)cc(C)c2)c1C	-1	4	1	-11	nt	nt	nt	nt
CN(CC(=O)Nc1ccc(N2CCOCC2)cc1)C(=O)c1ccc(CS(C)(=O)=O)cc1	4	-3	-2	-9	-11	nt	nt	nt
CN(C)c1oc(-c2ccco2)nc1S(=O)(=O)c1ccc(Br)cc1	-11	-5	-1	-12	nt	nt	nt	nt
COc1ccc(C(c2nnnn2C(C)(C)C)N2CCN(C)CC2)cc1OC (stereo unspecified)	nt	0	1	-5	-22	i	-1	-6
CCNCCNc1ccc(Cl)cc1[N+](=O)[O-]	-32	8	2	-6	-20	i	nt	nt
Next part:
SMILES	Env fusion inh	MT1-MMP act inh	MT1-MMP act inh RFP	UUG fidelity	CSC inhib	Rce1 inhib	eIF4H FP inh	PABP FP inh	others
O=C(NCCc1ccccc1)C1Cc2c(-c3ccccc3Oc3ccccc3)ccnc2O1 (stereo unspecified)	7	-9	-6	-12	nt	nt	nt	nt
Cc1ccccc1C(=O)NNC(=O)c1cccn1C	-12	-2	4	-17	-11	i	nt	nt
COc1ccccc1N(Cc1ccccc1)S(=O)(=O)c1cccc(C(=O)NCC2CCCO2)c1 (stereo unspecified)	11	-2	-4	-7	6	nt	nt	nt
C/C(=N\NC(=O)c1cccc(N/N=C(\C)c2ccccc2)c1)c1ccccc1	-51	5	2	nt	6	nt	1	-2
O=C(NC1CCCCCC1)c1nnc(Cc2ccc(Cl)cc2)o1	4	2	5	-17	-13	i	11	-2
COCCCNC(=O)c1cc(S(=O)(=O)N2CCOCC2)ccc1SCc1cccc(OC)c1OC	3	-6	-1	nt	-3	i	-7	-9
COc1ccc(CCN(C)Cc2ccc(C(=O)Nc3ccccc3)cc2)cc1OC	36	5	-7	-7	-1	i	-2	-2
CCc1c(C)nc(SCCOc2ccc(OC(C)C)cc2)[nH]c1=O	nt	4	1	-7	-1	i	0	-5
Cc1ccc(NC(=O)c2ccc(Cl)nc2)cc1S(=O)(=O)N1CCOCC1	-240	-3	-9	-10	34	nt	nt	nt
O=C(COC(=O)c1ncc(Cl)c(Cl)c1Cl)NC1CCCCCC1	10	12	1	nt	9	i	nt	nt
Cc1ccc2c(c1)C1CC(C)(O2)N(c2cccc(C(=O)NC3CCN(Cc4ccccc4)CC3)c2)C(=O)N1 (stereo unspecified)	6	-7	-4	-10	-8	i	-12	0
O=C(Cc1cccc2ccccc12)Nc1ccc(O)cc1C(=O)O	-11	-6	3	-2	-9	i	-7	8
O=C(Cn1cccc1C(=O)c1ccccc1)NCc1ccc(F)cc1	3	2	3	-20	-7	i	-13	11
O=C(Nc1ccc(S(=O)(=O)N2CCOCC2)cc1)c1ccc([N+](=O)[O-])s1	-41	-1	-14	-9	63	nt	nt	nt
CCC1CCCCN1CCCNC(=O)c1nn(C)c2c1CS(=O)(=O)c1ccccc1-2 (stereo unspecified)	18	-3	2	-10	-4	i	nt	nt
CC(=O)N1c2ccc(S(=O)(=O)N3CCC(C(=O)Nc4ccc(C)cn4)CC3)cc2CC1C (stereo unspecified)	1	1	-27	5	-11	i	-17	-6
O=C1C=C(c2ccccc2)C(O)(c2ccccc2)C1 (stereo unspecified)	nt	6	4	-8	-9	nt	-4	-5
CC(=O)Nc1cc2c(cc1NC(=O)Cn1nnc(-c3ccc(C)o3)n1)OCCO2	3	-2	2	nt	-3	i	16	-5
CCCn1nnnc1NCc1ccc(F)cc1	-11	-1	6	nt	1	i	-1	12
CO/N=C(\C(=O)N[C@@H]1C(=O)N2C(C(=O)O)=C(COC(N)=O)CS[C@H]12)c1ccco1	-18	-1	4	-15	-7	i	5.6*	118*	eIF4H FP inh retest=95*;PABP FP inh retest=89*
O=C(O)CC(c1ccc(Br)cc1)N1Cc2ccccc2C1=O (stereo unspecified)	-9	1	3	-33	-1	i	-12	6
CN(C)c1ccc(NC(=O)CSc2nc(N)c(C(=O)Nc3ccc(N(C)C)cc3)s2)cc1	41*	-2	-20	-19	-11	i	-2	-14
Cc1ccccc1OCC(=O)OC(C(=O)c1ccccc1)c1ccccc1 (stereo unspecified)	9	0	1	-24	-4	i	-4	-5
Cc1ccc(-c2nnn(CC(=O)N(CCN3CCOCC3)C(C(=O)NC(C)(C)C)c3ccco3)n2)cc1 (stereo unspecified)	4	-1	-5	nt	-17	i	-6	4
CCCCSc1nnc2c(n1)OC=Nc1ccccc1-2	-3	-1	2	nt	-11	i	7	6
Later entries:
SMILES	Env fusion inh	MT1-MMP act inh	MT1-MMP act inh RFP	UUG fidelity	CSC inhib	Rce1 inhib	eIF4H FP inh	PABP FP inh	others
O=C(O)CCCN1C(=O)C2C3C=CC(C2C1=O)C1C(=O)N(CCCC(=O)O)C(=O)C31 (stereo unspecified)	7	-7	-1	-17	-14	i	0	11
COc1ccc(-c2noc(CCC(=O)Nc3ccc(C)c(C)c3)n2)cc1	-18	7	-4	-10	nt	i	1	-11
CC(C(=O)N=Nc1c(O)[nH]c2ccccc12)n1cnc2ccccc2c1=O (stereo unspecified)	-3	5	0	nt	-12	i	-4	4
Cc1ccc2oc(=O)c3cnn(CC(=O)NCCCOC(C)C)c3c2c1	nt	4	2	-2	11	i	-3	7
COc1ccc(N2C(=O)CCC(C(=O)Nc3cccc(C)n3)C2c2ccc(OC)c(OC)c2)cc1 (stereo unspecified)	-60	-13	-8	-12	-11	i	-7	-9
Cc1ccccc1N1CCN(C2CCCN(C(=O)CCc3c(C)noc3C)C2)CC1 (stereo unspecified)	nt	2	-5	-13	-12	i	1	4
COc1cc([N+](=O)[O-])ccc1NC(=O)CCCOc1cccc(C)c1	-53	-4	-5	7	-2	i	-10	4
CC1=C(C(=O)OC(C)C)C(c2ccc(O)cc2)NC(=O)N1 (stereo unspecified)	4	1	2	2	-7	i	11	4
COCCNc1c2c(nc3c(-c4ccccc4)c(C)nn13)CCC2	16	4	-4	-14	27	i	-4	5
Cc1ccc(OCC(=O)N/N=C\c2cccn2C)c([N+](=O)[O-])c1	-13	-3	-5	-28	-31	i	2	3
Cc1cc2c(cc1S(=O)(=O)N1CC(C)CC(C)C1)OCC(=O)N2 (stereo unspecified)	0	1	0	-14	0	i	-5	4
C#Cc1ccc([C@H]2C=C(C(=O)Nc3ccccc3)O[C@@H](OCc3ccc(CO)cc3)C2)cc1	-9[16.7 µM]	6	-5	-19	-10	i	0	4
CC(OC(=O)Cc1ccc(F)cc1)C(=O)N1CCc2ccccc21 (stereo unspecified)	-147	-6	-3	-19	nt	nt	nt	nt
O=C(COC(=O)C1CC(=O)N(Cc2ccco2)C1)Nc1ccc(F)cc1F (stereo unspecified)	nt	1	3	-5	-4	nt	nt	nt
CC(C)Oc1ccc(/C=N/NC(=O)c2ccc(N(Cc3ccccc3)S(C)(=O)=O)cc2)cc1	1	18	-5	nt	8	i	-8	-8
COc1ccc(/C=N/NC(=S)Nc2cccc(C(=O)O)c2)cc1	4	1	4	nt	nt	i	4	-4
CC(C)C[C@H](NC(=O)c1ccc(OC2CCN(C(=O)C3CC3)CC2)cc1)C(N)=O	-3	-2	-2	nt	-10	i	-8	3
O=C(Nc1ccc(NC(=O)C2CC2)cn1)c1ccccc1	10	5	6	-42	10	i	-5	2
COCCN1C=C(C(=O)OC)C(c2ccc(OC)c(OC)c2)C(C(=O)OC)=C1	-22	0	2	-14	7	i	-5	15
COc1cc(NC(=O)c2cc(S(=O)(=O)N3CCCCC3)ccc2N2CCOCC2)cc(OC)c1	1	-3	0	1	-11	i	nt	nt
CC1CCCCC1NC(=O)COC(=O)c1ccc2c(=O)n3c(nc2c1)CCC3 (stereo unspecified)	6	0	3	-14	-15	nt	nt	nt
O=C(NCCNc1ccc([N+](=O)[O-])cc1C(F)(F)F)c1ccccc1F	nt	2	-7	-4	nt	i	2	-5
O=C(C1CCN(S(=O)(=O)c2cnc[nH]2)CC1)N1CCN(c2ncccn2)CC1	-27	5	2	-13	nt	i	12	-2
O=C(Nc1ccc(C(=O)N2CCN(c3ccccn3)CC2)cc1)c1ccc(Br)o1	-8	4	5	9	-12	i	nt	nt
CC(=O)c1cccc(NC(=O)CC2S/C(=N/N=C3CCCCCC3)NC2=O)c1 (stereo unspecified)	-3	-6	-4	-17	nt	i	-1	-2
CCN1CCN(S(=O)(=O)c2ccc3c4c(cccc24)C(=O)N3CC)CC1	nt	3	6	13	-16	nt	nt	nt
O=c1c(/C=N/O)coc2ccc3ccccc3c12	nt	0	3	-6	2	i	2	-12

High-throughput results deposited in PubChem by several laboratories.
